RE007 growth inh = less growth of the S. pombe RE007 Vpr strain; S. pombe RE007 Vpr strain, BacTiter-Glo ATP luminescence, 24 h; control for the full effect not named in the record; Potency, µM (doses to about 92.2 µM), without a hit: at the top dose activity change, negative = less growth; hit rate 0.21% among 360,000; active = well fitted falling curve with a large enough effect; inconclusive = small, poorly fitted or top-dose-only effect; inactive = no such curve, though single readings can be large or run the other way;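 also: % is scaled to controls: 0 for no effect and ±100 for the full control effect; nearly all actives have a fitted effect of over 50% in size; the assay follows cell death caused by Vpr and the record does not say whether a fall means rescue or toxicity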
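Fission yeast strain RE007, carrying one chromosomally integrated HIV-1 vpr copy, was seeded at OD 0.01 in PMG+AL medium with 23 nL pinned compound. After 24 h at 30 °C and 99% humidity, viability was read by BacTiter-Glo luminescence.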
StopGo reporter = lowers the luciferase signal of an FMDV 2A StopGo reporter; human cells with a luciferase reporter of 2A StopGo recoding; control for the full effect not named in the record; Potency, µM (titrated, usually from 57.9 µM), for the others: at the top dose signal change, negative = less light; hit rate 1.2% among 410,000; AID 1159524; active = well fitted falling curve with a large enough effect; inconclusive = small, poorly fitted or top-dose-only effect; inactive = no such curve, though single readings can be large or run the other way; tested in HEK293T cells; also: % is scaled to controls: 0 for no effect and ±100 for the full control effect; nearly all actives have a fitted effect of over 45% in size; luciferase light after 4 h
NS1 inh = blocks influenza NS1 protein function; Potency, µM (titrated, usually from 46.1 µM), for inactives: at the top dose activity, positive = more growth; S. cerevisiae slowed by influenza A NS1, growth recovery by OD600; hit rate 0.4% among 270,000; also: actives are rising curves; nearly all actives have a fitted effect of over 50% in size
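Growth recovery, yeast-based: influenza A NS1 expressed in S. cerevisiae causes slow growth, and suppressors are detected by OD600. The parent strain without NS1 is used as positive control.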
SARS PLP yeast = blocks SARS-CoV papain-like protease in a yeast assay. S. cerevisiae expressing SARS-CoV PLpro, growth rescue; control for the full effect not named in the record. Potency, µM (doses to about 32.9 µM), inactives show at the top dose activity, positive = growth rescue. hit rate 0.19% among 330,000. AID 485353; also: 0% is about no effect; nearly all actives have a fitted effect of over 55% in size; growth read by luminescence after 48 h
MARV entry inh = inhibitors of Marburg virus binding or cell entry; hit rate 1.8% among 300,000; Potency, µM (doses to about 37.8 µM), for the others: at the highest dose activity change, negative = inhibition, actives largely listed as inhibitors; Marburg virus pseudotyped entry inhibition, cell reporter; control for the full effect not named in the record; about a third of the inactives were read at about 46 µM; AID 540276; active = well fitted inhibition curve with a large enough effect; inconclusive = small, poorly fitted or top-dose-only effect, or effect the other way; inactive = flat fitted curve, though single readings scatter; tested in HEK293 cells; about a fifth of its hits are not listed in these tables; also: % is scaled to controls: 0 for no effect and ±100 for the full control effect; luciferase read-out
Lassa entry inh = Lassa virus entry inhibition; Lassa virus pseudotype entry inhibition, cell reporter; control for the full effect not named in the record; Potency, µM (top dose mostly 37.9 µM), inactives show at the highest dose activity change, negative = inhibition, usual class: inhibitors; hit rate 1.2% among 300,000; AID 540256; active means well fitted inhibition curve with a large enough effect; inconclusive means small, poorly fitted or top-dose-only effect, or effect the other way; inactive means flat fitted curve, though single readings scatter; tested in HEK293 cells; also: % is scaled to controls: 0 for no effect and ±100 for the full control effect; nearly all actives have a fitted effect of over 50% in size; luciferase read-out
Cruzain inh noDet = blocks cruzain activity in detergent-free assay; P25779; purified cruzain, Z-FR-AMC fluorescence, no detergent; Potency, µM, without a hit: max response, negative = inhibition, actives largely listed as inhibitors; hit rate 2.3% among 200,000; AID 1476; active = well fitted curve in the direction sought with a large enough effect; inconclusive = small, poorly fitted or top-dose-only effect, or another doubt; inactive = no such curve, though single readings can be large; an effect the other way counts as inactive or inconclusive;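 also: plate controls were enzyme without inhibitor for no effect and buffer without enzyme for full effect; nearly all actives have a fitted effect of over 40% in size; top concentration of the series not given in the record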
Target sequence (P25779 123-467 limits assumed): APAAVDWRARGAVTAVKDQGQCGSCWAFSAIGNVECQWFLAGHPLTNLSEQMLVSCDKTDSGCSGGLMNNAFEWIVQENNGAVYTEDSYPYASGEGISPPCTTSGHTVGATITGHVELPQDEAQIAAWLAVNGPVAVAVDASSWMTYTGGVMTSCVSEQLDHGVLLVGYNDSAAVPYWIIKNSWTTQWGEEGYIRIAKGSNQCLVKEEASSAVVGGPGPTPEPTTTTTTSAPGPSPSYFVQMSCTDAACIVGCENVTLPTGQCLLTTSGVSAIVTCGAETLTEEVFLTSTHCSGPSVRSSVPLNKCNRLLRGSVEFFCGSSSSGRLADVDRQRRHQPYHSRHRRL
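Detergent-free condition (0.00005% Triton X-100) in acetate buffer pH 5.5 with DTT. 1.5 nM enzyme and compound were pre-mixed 15 min, then 2 uM Z-FR-AMC substrate added; reaction progress from fluorescence change between first and third reads (60 s).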
Cruzain Triton = cruzain (T. cruzi) inhibition with detergent | Potency, µM, inactives show max response, negative = inhibition, actives largely listed as inhibitors | hit rate 0.43% among 200,000 | AID 1478 | purified cruzain, Z-FR-AMC fluorescence, 0.01% Triton | P25779; active = well fitted curve in the direction sought with a large enough effect; inconclusive = small, poorly fitted or top-dose-only effect, or another doubt; inactive = no such curve, though single readings can be large; an effect the other way counts as inactive or inconclusive;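 also: plate controls were neutral wells for no effect and buffer without enzyme for full effect; nearly all actives have a fitted effect of over 40% in size; top concentration of the series not given in the record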
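Purified cruzain (1.5 nM final) was preincubated with compounds for 15 min at room temperature in 100 mM sodium acetate pH 5.5, 5 mM DTT, 0.01% Triton X-100. Reaction started with 2 uM Z-FR-AMC; AMC fluorescence change over 60 s gave activity.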
Active calls of the source: *; ? = inconclusive; . = not tested or not shown; & = joins results of further samples; ! = not active in a repeat; [ ] = remark or other dose. Unless noted, calls follow the shape of the dose curve; as a rule, active means well fitted rising curve with a large enough effect; inconclusive means small, poorly fitted or top-dose-only effect; inactive means no such curve, though single readings can be large or run the other way. Potency is read from the fitted curve at half-maximal effect. Compounds were not picked by outcome; any-hit rate near 4.7%.

SMILES | RE007 growth inh | StopGo reporter | NS1 inh | SARS PLP yeast | MARV entry inh | Lassa entry inh | Cruzain inh noDet | Cruzain Triton
COc1ccccc1CNC(=O)CC12CC3CC(CC(Br)(C3)C1)C2 | 29.8% | 9.0% | 0.4% | 5.5% | 3.5%[46.1 µM] | 2.6%[46.1 µM] | . | .
COCc1c(C(=O)N2CCN(c3ccc(C(F)(F)F)cn3)CC2)oc2ccccc12 | -5.6% | ? | -57.2% | -13.2% | 11.7% | 15.4% | ? | -16.9%
O=C(CC1C(=O)OCN1C(=O)OCc1ccccc1)OCC(=O)c1ccccc1 (configuration not stated) | -5.4% | 3.2% | -16.2% | -0.3% | -3.0% | 4.0% | -1.9% | -1.1%
Cc1ccc(NC(=O)Cn2cnc3sc(C(=O)NCc4ccco4)c(C)c3c2=O)cc1Cl | -12.8% | -14.4% | 16.8% | -8.0% | -8.1% | 6.2% | -14.5% | -2.6%
CC(C)c1nc2oc3c(=O)[nH]cnc3c2c2c1CCC2 | 19.3% | -25.7% | -3.5% | 0.5% | ? | -5.2% | 1.9% | -0.9%
Nc1c(C(=O)NCCN2CCOCC2)c2nc3ccccc3nc2n1CCc1ccccc1 | 14.0% | . | -11.3% | -3.5% | ? | ? | 4.1% | 5.6%
CCC(C)(C)NC(=O)c1ccc(S(=O)(=O)N(C)c2ccccc2OC)cc1 | -25.4% | -16.9% | -2.2% | . | -19.9% | -19.2% | -1.7% | -2.0%
CCOC(=O)c1cnc2ccc(C)cc2c1NCCO | 4.2% | -17.3% | -7.9% | 3.7% | -13.0% | 9.7% | -11.3% | -7.3%
CN(C)S(=O)(=O)c1cccc(C(=O)N2CCC(C(=O)O)(c3ccccc3)CC2)c1 | -1.7% | -5.1% | 7.4% | 8.3% | -2.9%[46.1 µM] | ? | . | .
Cc1ccc([N+](=O)[O-])c(OCC(=O)OCC(=O)c2ccccc2)c1 | 4.4% | 11.9% | -10.1% | -21.6% | ? | 20.0% | 2.6% | -6.8%
O=C(CSc1nc2c(c(=O)[nH]1)CCCC2)Nc1ccccc1C(F)(F)F | . | -3.5% | . | . | 3.3%[46.1 µM] | 1.2%[46.1 µM] | -1.9% | -2.6%
O=C(c1cc(-c2ccncc2)nc2ccc(Cl)cc12)N1CCN(Cc2ccc3c(c2)OCO3)CC1 | -0.6% | ? | 3.2% | -1.0% | ? | -1.3% | . | .
CCCN1C(=O)c2[nH]nc(-c3ccccc3O)c2C1c1ccc(OCc2ccccc2)c(OC)c1 (configuration not stated) | . | ? | . | . | -21.2%[46.1 µM] | ? | ? | -8.3%
CN(C)CCCNC(=O)C(=O)NCC(c1ccc2c(c1)OCO2)N1CCOCC1 (configuration not stated) | . | -15.2% | . | . | . | 0.1%[46.1 µM] | 13.0% | 5.9%
COc1ccc(Cl)cc1NC(=O)CCN1CCN(C)CC1 | 0.0% | -7.9% | 2.2% | 0.1% | ? | 1.9% | -12.9% | 4.1%
Nc1nc(-c2ccccc2)nn1C(=O)c1ccco1 | -4.7% | 3.9% | . | -0.1% | 0.5%[46.1 µM] | -6.2% | . | .
Cc1cc(C)cc(NS(=O)(=O)Cc2ccccc2)c1 | 15.8% | 43.1%[activator] | -13.4% | 5.4% | -3.4% | 5.2% | . | .
Cc1cccc(C(=O)NNC(=O)c2cccc(C)c2)c1 | 2.5% | 18.3% | 3.7% | -10.0% | -1.4% | 21.4% | -1.6% | -1.3%
COc1ccc(NC(=O)CCCNC(=O)Cn2cnc3sc4c(c3c2=O)CCCC4)cc1OC | 1.5% | -10.2% | -4.3% | 2.2% | -0.2%[46.1 µM] | 8.5% | . | .
CCC(=O)N1CC23C=CC(CC2CC12CCCCC2)O3 (configuration not stated) | -4.1% | 11.4% | 9.3% | 4.9% | 1.2% | 3.5% | 4.5% | 1.7%
O=C(CN(c1ccccc1)S(=O)(=O)c1ccccc1)NCCSc1ccccn1 | -12.3% | -16.3% | -1.3% | 1.8% | ? | -21.3% | . | .
Cc1ccc(N(CC(=O)NC2CCCC2)C(=O)CNC(=O)c2cccs2)cc1F | -15.0% | 6.0% | 7.4% | 2.0% | -5.6%[46.1 µM] | -9.6%[46.1 µM] | . | .
Cc1ccc(S(=O)(=O)NCC2CCC(C(=O)NCCc3ccc(Cl)cc3)CC2)cc1 (configuration not stated) | . | -10.4% | . | . | . | 20.7%[46.1 µM] | 11.8% | -0.4%
Cn1c(SCc2nnc(-c3ccccc3Br)o2)nc2sc3c(c2c1=O)CCC3 | 3.0% | . | 10.1% | -1.8% | -26.9% | 1.7% | ? | 0.1%
COC(=O)c1scc(-c2ccc(C)cc2)c1S(=O)(=O)Nc1cccc(Cl)c1C | . | 53.2%[activator] | . | . | . | -2.6%[46.1 µM] | ? | -8.5%

Continued (2 carried over from the part before).
SMILES | RE007 growth inh | StopGo reporter | NS1 inh | SARS PLP yeast | MARV entry inh | Lassa entry inh | Cruzain inh noDet | Cruzain Triton
Cn1c(SCc2nnc(-c3ccccc3Br)o2)nc2sc3c(c2c1=O)CCC3 | 3.0% | . | 10.1% | -1.8% | -26.9% | 1.7% | ? | 0.1%
COC(=O)c1scc(-c2ccc(C)cc2)c1S(=O)(=O)Nc1cccc(Cl)c1C | . | 53.2%[activator] | . | . | . | -2.6%[46.1 µM] | ? | -8.5%
CCN1CCN(Cc2ccc(NC(=O)c3cc(NC(=O)c4cc5cccc(OC)c5o4)cc(OC)c3)cc2C(F)(F)F)CC1 | 8.4%&-2.3% | 39.8µM*! | -34.8% | 0.2% | . | . | . | .
CCOC(=O)C1CCN(C(=O)COc2ccc3c(c2)OCO3)CC1 | -2.1% | -13.4% | -3.4% | 1.0% | 20.2%[46.1 µM] | -20.4%[46.1 µM] | . | .
COc1ccc2nc(C)cc(Nc3ccc(C)cc3)c2c1 | 3.7% | -16.2% | -11.9% | -3.4% | ? | ? | . | .
COc1ccc(CN=Cc2c(C(=O)O)[nH]c3ccccc23)cc1 | 10.9% | 15.6% | . | -0.6% | -0.6%[46.1 µM] | -13.1%[46.1 µM] | . | .
O=c1cc(-c2ccccc2)[nH]n1-c1ccc([N+](=O)[O-])cc1 | -17.4% | ? | -78.8% | -19.8% | -21.0% | -5.3% | ? | -21.5%
CCOc1ccc(S(=O)(=O)NCCC(=O)N2CC(C)OC(C)C2)cc1 (configuration not stated) | -16.4% | -11.1% | . | -4.5% | 2.5%[46.1 µM] | -13.2% | . | .
CCC1CCCCN1CCCNC(=O)c1ccc2nc(N3CCCCC3)sc2c1 (configuration not stated) | -14.2% | 9.8% | -10.9% | 26.2% | . | . | . | .
Cc1nc(N2C(=O)c3oc4ccccc4c(=O)c3C2c2ccccc2F)sc1C (configuration not stated) | . | -20.0% | . | . | ? | ? | 2.1% | 0.0%
Cc1ccc(NC(=O)C(C)OC(=O)c2cc(=O)[nH]c3ccccc23)cc1S(=O)(=O)N1CCOCC1 (configuration not stated) | 13.1% | 5.4% | . | . | 2.9% | -10.9% | . | .
Cn1cnnc1SCC(=O)c1ccc2c(c1)CCCC2 | -16.3% | 41.8%[activator] | -48.8% | -0.5% | ? | 29.8% | -6.3% | -6.4%
CC1(C(=O)CSc2nc3ccccc3[nH]2)CCC(=O)O1 (configuration not stated) | 7.5% | -11.2% | 4.1% | -22.0% | -1.1% | -3.2% | -17.4% | -3.4%
Cc1cccc(-c2nc3cc(NC(=O)c4ccc(OCC(C)C)cc4)ccc3o2)c1 | . | -5.1% | . | . | . | -3.8%[46.1 µM] | -7.9% | 0.5%
O=C(N/N=C(\c1ccccc1)c1cccnc1)c1ccc(O)cc1 | 8.1% | -10.3% | -4.6% | 1.4% | -8.6%[46.1 µM] | -22.2%[46.1 µM] | . | .
C/C=C1/CC(C)C(C)(O)C(=O)OCC2CCN3CCC(OC1=O)C23 (configuration not stated) | -10.6% | -12.3% | 0.0% | 0.8% | ? | 14.7% | . | .
Cc1c2c(nc3ccccc13)OCC2 | -2.1% | -18.3% | 8.5% | -20.4% | -5.5%&-5.5% | 14.8% | -0.4%&1.3% | 1.0%&-2.1%
O=S(=O)(Nc1cccc(S(=O)(=O)N2CCCC2)c1)c1ccccc1F | 13.7% | 29.7% | . | -4.1% | -12.2% | -0.8% | . | .
O=C(CCCN1CCN(c2ccccn2)CC1)c1ccc(F)cc1 | -5.3%[18.4 µM] | -8.3%&18.6% | . | . | . | . | 4.8%&-6.2% | 7.4%&6.7%
O=C(O)CCc1ccc(-c2cccs2)n1NC(=O)c1ccc(O)cc1 | -3.9% | 13.8% | 10.4% | 0.7% | 2.6% | ? | -11.6% | 2.3%
O=C(Cc1cc(=O)[nH][nH]1)N/N=C/c1ccccc1Cl | -13.3% | -16.3% | ? | -4.5% | ? | 7.4% | 0.1% | -4.8%
CC(C)CNC(=O)C(=O)Nc1ccc(N(C)C)cc1 | -2.4% | 81.3%[activator] | 7.2% | 0.9% | ? | ? | -8.3% | 0.3%
CCC(Oc1ccccc1)C(=O)Nc1ccc(OCc2cc(=O)n3ccccc3n2)cc1 (configuration not stated) | . | -18.1% | . | . | . | 1.4%[46.1 µM] | 10.7% | 3.3%
CCOc1ccc(N2CC(C(=O)NC3CCSC3=O)CC2=O)cc1 (configuration not stated) | 6.6% | -14.1% | 6.1% | -1.1% | 3.9%[46.1 µM] | 21.7% | . | .
N#CC(c1cccc(Cl)c1)c1ncc(C(F)(F)F)cc1Cl (configuration not stated) | 3.4% | -2.6% | 9.3% | 1.1% | 0.5% | -7.0% | -2.6% | -2.9%
CN(Cc1cccs1)C(=O)COc1ccc(-c2nnco2)cc1 | -2.0% | 25.7% | -10.1% | 10.9% | 2.1% | 12.5% | -4.9% | -3.6%
c1ccc(CNc2ncnc3nc[nH]c23)cc1 | -11.7%[18.4 µM] | -2.9% | 7.5% | 2.1% | . | . | -0.2%&-12.4% | 8.1%&4.0%

High-throughput results as filed in PubChem.
